High-throughput results (PubChem BioAssay)
VDR inhibitor = Inhibitors of the vitamin D receptor (VDR): qHTS. Vitamin D3 receptor (Homo sapiens), P11473. VDR-SRC2-3 peptide fluorescence polarization, 2 h. 0.93% of 400,000 active. AID 504847, 2011. Potency, µM, for the others: max response, negative = inhibition, actives largely listed as inhibitors; active means well fitted inhibition curve with a large enough effect; inconclusive means small, poorly fitted or top-dose-only effect, or another doubt; inactive means no such curve, though single readings can be large or run the other way; further: series mostly up to about 120 µM
Target sequence (P11473 whole entry, looked up): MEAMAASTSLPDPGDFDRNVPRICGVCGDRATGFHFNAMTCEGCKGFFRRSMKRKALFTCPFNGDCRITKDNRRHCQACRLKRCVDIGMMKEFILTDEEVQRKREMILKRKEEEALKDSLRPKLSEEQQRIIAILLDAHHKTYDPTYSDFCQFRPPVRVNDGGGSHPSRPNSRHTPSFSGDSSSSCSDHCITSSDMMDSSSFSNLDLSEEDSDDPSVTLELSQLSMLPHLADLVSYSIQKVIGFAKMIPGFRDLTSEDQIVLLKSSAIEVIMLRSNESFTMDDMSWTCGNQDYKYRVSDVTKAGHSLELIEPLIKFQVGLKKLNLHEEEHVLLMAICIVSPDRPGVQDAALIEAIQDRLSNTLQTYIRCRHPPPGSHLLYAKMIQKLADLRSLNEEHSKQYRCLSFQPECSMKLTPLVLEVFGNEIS
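After 23 nl compound addition and a short centrifugation, plates sat for 2 hours at ambient temperature; polarization of fluorescence then indicated loss of VDR binding to peptide SRC2-3.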
Numbers without * were called inactive; ? = inconclusive; & = joins results of further samples. On the % scale 0 is the no-effect control and ±100 the full control effect; potency means the concentration at half of the fitted maximal effect.

SMILES	VDR inhibitor
Cc1nc2nc(NC(=O)c3ccc(C(C)(C)C)cc3)[nH]n2c(=O)c1C	0%
CCCCn1c(N)c(N(CCOC)C(=O)c2ccc(C)c(S(=O)(=O)N3CCOCC3)c2)c(=O)[nH]c1=O	-4%
CSCCC(NC(N)=O)C(=O)Nc1cccc(S(=O)(=O)N2CCOCC2)c1 (centres undefined)	-4%
CCCCCCCCCCOC(=O)Cn1c(COc2ccccc2OC)[n+](C)c2ccccc21	7%
CCOc1ccc(N(CC(=O)NCCSCc2ccccc2Cl)S(C)(=O)=O)cc1	-4%
CC(C)C[C@@H](CSc1ccc(Br)cc1)N1CCN(CCc2ccccc2)CCC1=O	-7%
O=C(C1CCCN(Cc2ccc([N+](=O)[O-])cc2)C1)N1CCCCC1 (centres undefined)	-12%
CCOc1ccc(/C(O)=C2/C(=O)C(=O)N(c3ccccn3)C2c2ccc(F)cc2)c(C)c1 (centres undefined)	-1%
COc1ccc(N2CCN(C(=O)CSc3nnc4c(C)cc5ccccc5n34)CC2)cc1	-5%
O=C(NC1CCCCC1)c1cc(F)cc2c1OCOC2	-4%
COc1ccc(C(=O)N2CCN(Cc3ccc4c(c3)OCO4)CC2)cc1OC	1%
COc1ccc(CN2CC(C(=O)NCCN3CCOCC3)CC2=O)cc1 (centres undefined)	-8%
O=S(=O)(c1cccs1)N1CCN(Cc2nc3ccccc3s2)CC1	-24%
CCCCn1c(N)c(N(CCOC)C(=O)COc2ccc(OCC)cc2)c(=O)[nH]c1=O	-18%
Cc1occc1C(=O)NC(C)C12CC3CC(CC(C3)C1)C2 (centres undefined)	-14%
CN(C(=O)c1cc(COc2c(F)cccc2F)on1)C1CCOC1 (centres undefined)	-6%
COCc1cc(=O)c2ccccc2o1	1%
CN(C)S(=O)(=O)c1ccc(NC(=O)CN2CCN(c3ccccn3)CC2)cc1	9%
CC1(C)CC(=O)C(N=Nc2c(Cl)cc(Cl)cc2Cl)=C(O)C1	-14%
O=C(NCCO)c1ccc2c3n(nc2c1)-c1ccc(Cl)cc1CO3	11%
Cc1ccc(NC(=O)C2CCCN(S(=O)(=O)c3ccc4c(c3)oc(=O)n4C)C2)cc1Cl (centres undefined)	-21%
COc1ccc(C(C)=O)cc1CN1C(=O)NC2(CCCCC2C)C1=O (centres undefined)	-13%
Cc1ccsc1CN(C)CC(=O)NCC(=O)Nc1ccc(F)cc1	5%
CC(=O)Nc1nc2ccc(S(=O)(=O)N3CCCC3)cc2s1	-16%
Cc1ccc(N2CC(C(=O)NCCC(C)C)CC2=O)cc1 (centres undefined)	0%
Cc1cccc(NC(=O)Nc2ccc(OCc3ccccc3)cc2)n1	-9%
CN1CCN(c2nc(C#N)cc(-c3ccccc3)n2)CC1	0%
CC(C)(C)OC(=O)N1O[C@H]2CC1[C@@H]1[C@@H]2N=NN1CCc1ccncc1	-18%
COc1ccc(OC)c(C(=O)CC2OC(=O)c3ccccc32)c1 (centres undefined)	20%
Cc1ccc(C(=O)Oc2ccccc2N2C(=O)C3CCCCC3C2=O)cc1 (centres undefined)	-6%
COc1ccc(S(=O)(=O)Nc2ccccc2OC)cc1NC(=O)c1cc2ccccc2oc1=O	9%
COc1cccc(CNC(=O)CC2Sc3ccccc3NC2=O)c1 (centres undefined)	-13%
O=C(O)/C(=C\c1ccco1)NC(=O)c1cccc2ccccc12	-18%
CCOC(=O)C1=C(c2ccccc2)Nc2ncnn2C1c1ccc(O)cc1 (centres undefined)	12%
CC1(C)Cc2c(sc3ncn4c(=S)[nH]nc4c23)CO1	?
C=CCNC(=O)c1c[nH]c2ccc(S(=O)(=O)N(C)c3ccc(OCC)cc3)cc2c1=O	7%
CCCCn1c(=O)[nH]c(=O)c2c1nc(-c1ccc(-c3ccc(F)cc3)o1)n2C	13%
CC(OC(=O)c1ccco1)C(=O)Nc1nc(-c2ccccc2)cs1 (centres undefined)	9%
Nc1c(C(=O)c2ccc(Cl)cc2)sc2nsc(SCCN3CCOCC3)c12	-9%
Cc1cccc(NC(=O)c2ccc(-n3c(C)nnc3C)cc2)c1	7%
Cc1cccc(N2CCN(c3ccc4cc(S(=O)(=O)N5CCC(C)CC5)ccc4n3)CC2C)c1 (centres undefined)	12%
CCOC(=O)C1=C(COC(=O)COc2ccc(Br)cc2)NC(=O)NC1C (centres undefined)	9%
CC(C)c1nc2oc3c(NCC4CCCO4)ncnc3c2c2c1COC(C)(C)C2 (centres undefined)	0%
Cc1cc(C)cc(C(=O)N2CCN(Cc3ccc4c(c3)OCO4)CC2)c1	-1%
CN(C)S(=O)(=O)c1ccc(NC(=O)CN2C(=O)NC3(CCCC3)C2=O)cc1	-3%

Single entries from above.
VDR inhibitor result of CCOC(=O)C1=C(c2ccccc2)Nc2ncnn2C1c1ccc(O)cc1 (centres undefined) is entered as 12%
VDR inhibitor result of Cc1cccc(NC(=O)c2ccc(-n3c(C)nnc3C)cc2)c1 is entered as 7%
VDR inhibitor result of CCCCn1c(=O)[nH]c(=O)c2c1nc(-c1ccc(-c3ccc(F)cc3)o1)n2C is entered as 13%
VDR inhibitor result of Cc1cc(C)cc(C(=O)N2CCN(Cc3ccc4c(c3)OCO4)CC2)c1 is entered as -1%
VDR inhibitor result of CCOC(=O)C1=C(COC(=O)COc2ccc(Br)cc2)NC(=O)NC1C (centres undefined) is entered as 9%

The main list resumes, starting two compounds before the break.
SMILES	VDR inhibitor
Cc1cc(C)cc(C(=O)N2CCN(Cc3ccc4c(c3)OCO4)CC2)c1	-1%
CN(C)S(=O)(=O)c1ccc(NC(=O)CN2C(=O)NC3(CCCC3)C2=O)cc1	-3%
CCSc1nc2ccccc2n1C(=O)/C=C\c1ccc(OC)c(OC)c1	50µM*
Cn1cccc1Cc1nnc(SCC(=O)N2CCc3ccccc32)n1-c1ccc(F)cc1	15%
c1ccc(-c2nc3ccccc3s2)nc1	-5%&7%
CCOC(=O)C1=C(CN2CCC(C(=O)OCC)CC2)NC(=O)NC1c1ccc(Cl)cc1 (centres undefined)	-5%
CC1(C(=O)N2CCC(CC3CC(c4ccc(Cl)cc4)=NO3)(C(=O)NCC3CCCCC3)CC2)CC1 (centres undefined)	17%
O=C(CCc1nnc(-c2ccc3c(c2)OCO3)o1)N(Cc1ccncc1)CC1CCCO1 (centres undefined)	-1%
CC(=O)c1ccc(NC(=O)C2CCCN2S(=O)(=O)c2cccs2)cc1 (centres undefined)	4%
O=C(Nc1ccncc1)C1CCC(CNS(=O)(=O)c2cccc3nsnc23)CC1 (centres undefined)	-7%
COc1ccc(C(=O)N2CCC3(CCCN(Cc4ccccc4OC)C3)CC2)cc1	-1%
CCOc1ccccc1N1CC(C(=O)Nc2ccccc2N2CCCC2)CC1=O (centres undefined)	3%
CCC(=O)N1CCc2cc(S(=O)(=O)NC(Cc3ccccc3)C(=O)NC3CCCC3)ccc21 (centres undefined)	-1%
Cc1cc(C(F)(F)F)nn1CC(=O)NNC(=S)Nc1ccc(Cl)cc1	-4%
O=C(O)c1ccc(S(=O)(=O)c2ccc(Sc3ccc(C(=O)O)c(C(=O)O)c3)cc2)cc1	13%
Clc1cccc(OCCn2cncn2)c1Cl	-14%
CCN(CC)CCCn1c(=S)[nH]c2ccccc2c1=O	18%

Laid out differently: results already given
smiles | VDR inhibitor
O=C(Nc1ccncc1)C1CCC(CNS(=O)(=O)c2cccc3nsnc23)CC1 (centres undefined) | -7%
COc1ccc(C(=O)N2CCC3(CCCN(Cc4ccccc4OC)C3)CC2)cc1 | -1%
CCOc1ccccc1N1CC(C(=O)Nc2ccccc2N2CCCC2)CC1=O (centres undefined) | 3%

(list continues)
SMILES	VDR inhibitor
CCOc1ccc(S(=O)(=O)N(CC(=O)NCCc2ccc(OC)cc2)c2ccccc2)cc1	-3%
CCCCCn1c(C(Cc2ccccc2)NC(=O)COC)nc2ccccc21 (centres undefined)	-3%
Cc1nn(-c2ccccc2)c(C)c1NC(=O)COC(=O)c1cccc(OC(F)F)c1	-4%
CCCC(=O)Nc1nnc(-c2ccc3c(c2)OCCO3)o1	-6%
COc1ccc(CSCC(=O)NCCC(C)C)cc1	-16%
CS(=O)(=O)N1CCN(c2ccc([N+](=O)[O-])c(SCc3ccco3)c2)CC1	-1%
COc1ccc(-c2nc(NC(=O)c3ccc(OCC(=O)N4CCOCC4)c(OC)c3)sc2C)cc1	-7%
CCC1CN(C(=O)N2CCC(C(=O)N3CCN(c4cc(C)ccc4C)CC3)CC2)c2ccccc2O1 (centres undefined)	17%
Cc1cc(C)c2nc(N3CCC(C(=O)N4CCCC4)CC3)sc2c1	-13%
COc1cccc(OC)c1OCCCNC1CCCC1	13%
CCn1c(=S)sc2c(=O)n(CC(=O)Nc3cc(OC)ccc3OC)c(C)nc21	5%
Cn1c(CSCc2ccc(Cl)cc2)n[nH]c1=S	13%
CC(=O)c1cccc(N(CC(=O)NC2CCCCC2)C(=O)CCC(=O)Nc2nc(C)cs2)c1	1%
CCc1nnc(NC(=O)CSc2nnnn2-c2cccc(C(C)=O)c2)s1	-17%
CCOC(=O)c1c(N2CCN(c3ccccc3)CC2)cc(C)nc1C	-14%
O=S(=O)(c1ccccc1)c1nc(-c2ccccc2)oc1N1CCCCC1	?
O=C(COc1ccccc1-c1ccccc1)N/N=C/c1cccc2ccccc12	14%
CN(Cc1ccco1)c1nc(-c2cccc(C#N)c2)nc2ccccc12	45µM*
COc1ccccc1C(=O)OCC(=O)NC(=O)NC1CCCCC1	9%
CCOc1ccc(C(=O)Nc2nnc(S(=O)(=O)N(C)Cc3ccco3)s2)cc1	-20%
COc1cc(OC)cc(-n2c(=O)[nH]c3cc(C(=O)NCCc4ccc(C)cc4)ccc3c2=O)c1	-3%
CC(C)c1ccc(NS(=O)(=O)c2ccc3[nH]cc(C(=O)NCC4CCCO4)c(=O)c3c2)cc1 (centres undefined)	-2%
Clc1ccc2nc(CSc3ccccc3)cn2c1	0%
CCOc1ccc2cc(S(=O)(=O)N3CCCCC3)ccc2c1	5%
C1CCN(c2nc3nonc3nc2NCC2CCOCC2)CC1	-14%
CC(C)c1ccc(NC(=O)Cc2c(C(=O)O)n(C)c3ccccc23)cc1	-16%
COC(=O)CCNC(=O)c1ccc2nc(Cc3ccc(OC)cc3)oc2c1	-6%
O=c1onc(-c2ccccc2Cl)n1-c1ccccc1Cl	10%
CCn1c(SCC(=O)Nc2ccc3c(c2)oc2ccccc23)nnc1-c1ccc(N)cc1	25%
COc1ccc2c(c1)cc1n2CCN=C1N	-7%
CC(C)c1ccc(CN2CCN(S(=O)(=O)c3ccc(Cl)s3)CC2)cc1	3%
Cc1nc2ccc(NS(=O)(=O)c3cccc([N+](=O)[O-])c3)cc2s1	-13%
C[C@@H](C(=O)NCc1ccccn1)[C@@H]1C[C@@]1(C)[C@@H](NC(=O)OCc1ccccc1)c1ccccc1	-20%
COc1ccc(-c2cc(C(=O)Nc3ccc(C)c(C)c3)no2)cc1	24%
COc1ccc(C(CNC(=O)COc2cc(C)ccc2Cl)N2CCCCC2)cc1 (centres undefined)	13%
Cc1noc(C)c1S(=O)(=O)N1CCCC(C(=O)NCc2ccccc2Cl)C1 (centres undefined)	3%
O=C(O)c1cccc(NC(=S)NC(=O)c2ccc(-c3ccc(Cl)cc3)o2)c1	-5%
O=C(Nc1cccnc1)c1coc(=O)c2ccccc12	-18%
Cc1nc2ccc(NC(=O)COc3ccccc3)cc2s1	0%
CCOC(=O)c1cnc2c(C)c(C)ccc2c1Nc1ccc(S(=O)(=O)Nc2ncccn2)cc1	-13%
O=C(Nc1cc(S(=O)(=O)Nc2ccccc2Cl)ccc1O)c1cc2c(s1)CCCC2	-10%
CC(=O)O[C@H]1c2ccccc2-c2ccccc2[C@@H]1OC(C)=O	-10%
COc1cc(NC(=O)CCNC(=O)Cn2ccc3ccccc3c2=O)cc(OC)c1OC	-13%&-11%
CC(=O)c1cccc(NS(=O)(=O)N2CCOCC2)c1	-14%
O=C(NCCc1c[nH]c2ccccc12)/C(=C\c1cccnc1)NC(=O)c1ccco1	6%

Part of the list above in another layout:
SMILES,VDR inhibitor
Cc1nc2ccc(NS(=O)(=O)c3cccc([N+](=O)[O-])c3)cc2s1,-13%
C[C@@H](C(=O)NCc1ccccn1)[C@@H]1C[C@@]1(C)[C@@H](NC(=O)OCc1ccccc1)c1ccccc1,-20%
COc1ccc(-c2cc(C(=O)Nc3ccc(C)c(C)c3)no2)cc1,24%
COc1ccc(C(CNC(=O)COc2cc(C)ccc2Cl)N2CCCCC2)cc1 (centres undefined),13%
Cc1noc(C)c1S(=O)(=O)N1CCCC(C(=O)NCc2ccccc2Cl)C1 (centres undefined),3%

Next records follow:
SMILES	VDR inhibitor
O=C(CN(c1cccc(Cl)c1)S(=O)(=O)c1ccc(Cl)cc1)N1CCc2ccccc2C1	-20%
CCOC(=O)c1c(C)n(-c2ccccc2)c2ccc(OC(=O)c3ccccc3NC(=O)C(C)(C)C)cc12	-5%
COc1ccccc1C(=O)N(Cc1ccc(Cl)cc1)C1CCS(=O)(=O)C1 (centres undefined)	-6%
COc1ccc(C)cc1NC(=O)Nc1nnc(N2CCCCC2)s1	13%
Cc1cc(=O)[nH]c(SCC(=O)Nc2ccc(F)cc2)c1C#N	12%
CCN(CC)C(=S)SCC(=O)NC12CC3CC(CC(C3)C1)C2	3%
COc1ccc(-c2nnc(SCC(=O)N3CCCCC3)o2)cc1	-9%&-21%
CC1CCN(C(=O)CSc2nc(N)c3c4c(sc3n2)CN(C)CC4)CC1	15%
COC(=O)c1c(NC(=O)/C(C#N)=C/c2ccc(OC)cc2)sc2c1CCC2	-14%
O=C(COc1ccc2ccccc2c1Br)Nc1cccnc1	18%
Cc1ccc(-n2nc3c(N4CCC(C(=O)NCc5ccc(C)o5)CC4)nnc(C)c3c2C)cc1	-2%
CCOCCCNC(=O)C(NC(=O)c1ccc(NC(C)=O)cc1)c1ccccc1 (centres undefined)	-17%
Clc1cccc(COn2c(-c3ccc(Cl)cc3Cl)nc3ncccc32)c1	-7%
CCc1ccc(-n2c(N3CCN(c4cccc(Cl)c4)CC3)nc3ccccc3c2=O)cc1	-18%

The list is partial; rates above refer to the full screens.
